High-throughput results from PubChem BioAssay.
Sa RN4220 lethal: growth inhibition of S. aureus RN4220, primary screen, OD600; 16 h; inhibition, % (test concentration not listed); hit rate 0.33% among 330,000;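 active means z-score of -3 or lower and OD600 up to 0.18 on both plates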;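 further: plate controls were untreated cells for no effect and reference antibiotic for full effect; stock transfer was 100 nL into about 80 µL; one replicate is shown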
Sa ugtP lethal: growth inhibition of ugtP-null S. aureus, primary screen, RN4220 ugtP deletion, OD600; 16 h; some inactives read as strong as hits; growth inhibition, % (concentration not given with the values); hit rate 0.54% among 330,000;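 active means z-score under -3 and OD600 up to 0.15 on both plates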;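 further: plate controls were untreated wells for no effect and antibiotic for full effect; wells of about 80 µL received 100 nL stock; the first replicate is given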
Bead autofluor: compound fluorescence in toxin protease inhibitor counterscreen | compound autofluorescence counterscreen, microsphere flow cytometry; hits give high values | fluorescence intensity (no concentration beside the values) | hit rate 3.1% among 360,000 | AID 624483;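 active means at least 3 SD above the mean of all compounds, about 16000 in these data; inconclusive means too few beads counted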;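 further: 100 nL of 1 mM stock went into each well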
Mtb hypoxia inh: PubChem AID 1159583 | M. tuberculosis hypoxia-regulated fluorescent reporter, fluorescence | fluorescence inhibition, % (no concentration beside the values) | hit rate 0.1% among 300,000;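 active means 35 to 45% if threefold the growth effect, above 45% if 1.5-fold the growth effect; inactive means the rest, general growth blockers included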;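 further: wells of about 50 µL received 100 nL stock; 0% = vehicle wells and 100% = reference inhibitor wells; whole bacteria with a GFP reporter of the hypoxia response; strong numbers were not always called active; many hits fall short of the cut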
PrP 5UTR inh: inhibition of PrP 5' UTR reporter expression. cell-based PrP 5' UTR mRNA reporter, plate reader. hit rate 0.35% among 340,000. inhibition, % (concentration not given with the values). AID 488862, 2010;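 active means every replicate at 50% or more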;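 further: 0 = median of the neutral control wells; tested in H4 reporter cells; numbers are from one replicate; inactives centre near -14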
BJeLR lethal: MLPCN primary cell-based screen for lethality selective to Ras in HRASV12 cells | BJeLR (HRASV12) viability, CellTiter-Glo ATP luminescence, 48 h; reference of the scale not given here | inhibition, % (concentration not given with the values) | hit rate 0.17% among 300,000 | AID 1554, 2009;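 active means replicate mean above 50%; inconclusive means above 50% but judged a plate artefact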;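 further: 50 nL library stock added to about 25 µL; numbers are from one replicate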
Mtb hypoxia inh growth: further read-out of Mtb hypoxia inh, marked with its call; growth inhibition, %; measured here: M. tuberculosis growth (absorbance);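 0% = vehicle and 100% = reference antibiotic; read after six days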
Starred values were filed as active, the others as inactive; ? = inconclusive; . = not tested or not shown.

Each structure is followed by: Sa ugtP lethal, BJeLR lethal, Sa RN4220 lethal, Mtb hypoxia inh, PrP 5UTR inh, Mtb hypoxia inh growth, Bead autofluor
[1] COc1cc2cc(CN(Cc3cccs3)C(=S)Nc3ccc(C)cc3)c(=O)[nH]c2cc1OC
 : -12, -21, 4.0, 5, -67, 3, 2444
[2] COc1ccccc1CCc1nnc(CCC(=O)NCC2CCCO2)o1 (stereo not given)
 : 3, -13, 3.3, 17, -10, 10, 5210
[3] Cc1ccnc(NC(=O)C(Cc2ccccc2)NC(=O)c2ccccc2)c1 (stereo not given)
 : 4, ., 2.6, 3, -29, -1, 8551
[4] O=C(CCCn1c(SCC(=O)Nc2ccccc2Cl)nc2ccccc2c1=O)NCC1CCCO1 (stereo not given)
 : 9, -7, 4.1, 13, -8, 1, 4850
[5] COC(=O)C1=C(C)OC(N)=C(C#N)C1c1ccc(OC)c(OC)c1OC (stereo not given)
 : 10, -2, 4.6, 8, -24, 1, 15501
[6] O=C(CCN1N=C(c2ccccc2)CCC1=O)NCCCN1CCOCC1
 : 9, -3, 2.1, 12, -3, 3, 5440
[7] CSCCNCc1cn(-c2ccc(F)cc2F)nc1-c1ccccc1C
 : 3, 6, 4.5, -3, -18, 1, 4838
[8] CC(c1cccnc1)N(CCN(C)C)C(=O)Nc1ccc(Cl)cc1 (stereo not given)
 : 3, -14, 2.8, 7, -3, 7, 5725
[9] O=C(NN=Cc1ccc([N+](=O)[O-])o1)c1ccc(O)cc1
 : 21, ., 26, 3, ., 11, .
[10] S=C(Nc1ccc(Oc2ccccc2)cc1)Nc1cccnc1
 : -8, 1, -2.1, 14, -20, 1, 3658
[11] CN(Cc1ccc(F)cc1)C(=O)CN1C(=O)c2ccccc2S1(=O)=O
 : 7, ., 1.3, -4, -23, 10, 4092
[12] CCc1noc(C)c1C(=O)NCCc1ccccc1
 : 5, 5, 4.3, 10, -80, 9, 6683
[13] CCC(C)C(NC(=O)c1ccccc1NC(=O)c1ccco1)C(=O)NNC(=O)c1ccc(OC)cc1 (stereo not given)
 : 1, 2, 0.9, -8, 7, -13, 2031
[14] O=C(Nc1ccccc1)C1=C[C@H](c2csc3ccccc23)C[C@H](OCCCCO)O1
 : ., -1, ., ., -22, ., 4104
[15] Nc1ncc(Br)cc1S(=O)(=O)NCCC(=O)Nc1cccc(Cl)c1
 : -7, -20, 15, 11, -32, 9, 8001
[16] COc1ccccc1C(=O)NCCN1CCN(c2ccccc2)CC1
 : 3, 4, 6.5, 10, 0, 6, 3724
[17] COc1ccc(-n2nnnc2SCC(=O)Nc2nc3c(s2)CCCC3)cc1
 : -14, -2, 3.7, -1, -16, 6, 8989
[18] O=C(NC1CCCCC1)c1cc2nc(-c3ccco3)cc(C(F)(F)F)n2n1
 : -12, 1, -13, 7, -7, 9, 2766
[19] O=C(Nc1ccccc1C(=O)O)c1ccc(NC(=O)c2ccc(Br)o2)cc1
 : -6, 16, 6.0, 0, -16, 6, 23730*
[20] O=C(NN=Cc1ccc(N2CCOCC2)cc1)c1ccccc1OCCOc1ccccc1
 : -3, ., -1.0, 1, ., 2, .
[21] O=C(NCc1ccc(F)cc1)C(c1ccco1)N(C(=O)c1csnn1)C1CC1 (stereo not given)
 : 5, -6, 2.1, 5, -6, 6, 5230
[22] O=C(Cn1cnc2ccccc21)N/N=C/c1ccccn1
 : ., -15, ., ., -15, ., 4903
[23] NC(=O)c1cccnc1Sc1ccc(Cl)cc1
 : 4, -4, 5.5, 10, -13, 6, 2545
[24] Cc1noc(C)c1COc1ccc(C(=O)NCCOc2ccccc2)cc1
 : 9, ., -7.1, 9, -27, 3, 9303
[25] Cc1ccc(S(=O)(=O)N(CC(=O)NCCC2=CCCCC2)Cc2ccccc2)cc1
 : -13, -7, 1.8, 4, -7, 12, 5396
[26] CCN1CCN(C(=O)c2ccc(N3CC4CC(C3)c3cccc(=O)n3C4)c(NC(=O)c3cc(OC)cc(OC)c3)c2)CC1 (stereo not given)
 : 1, -7, -1.1, 14, -3, 4, 6188
[27] Cc1cc(NC(=O)CN2C(=O)NC(C)(c3ccc(Cl)cc3Cl)C2=O)no1 (stereo not given)
 : -2, ., 2.0, 5, -15, -1, 4257
[28] Cc1ccc(S(=O)(=O)NC(=O)COc2ccc(Cl)cc2Cl)cc1
 : 3, -4, 7.1, -2, -18, -6, 4516
[29] CCOc1ccccc1NC(=O)COC(=O)C12CC3CC(CC(O)(C3)C1)C2
 : 4, ., 4.5, 1, -13, -2, ?
[30] Cc1ccc(NC(=O)CN2C(=O)S/C(=C\c3cc(Cl)c(OCC(=O)O)c(Cl)c3)C2=O)cc1
 : 8, -9, 9.9, -2, -20, -9, 3443

Brought forward from above: 4 compounds, followed by the next part.
Each structure is followed by: Sa ugtP lethal, BJeLR lethal, Sa RN4220 lethal, Mtb hypoxia inh, PrP 5UTR inh, Mtb hypoxia inh growth, Bead autofluor
[27] Cc1cc(NC(=O)CN2C(=O)NC(C)(c3ccc(Cl)cc3Cl)C2=O)no1 (stereo not given)
 : -2, ., 2.0, 5, -15, -1, 4257
[28] Cc1ccc(S(=O)(=O)NC(=O)COc2ccc(Cl)cc2Cl)cc1
 : 3, -4, 7.1, -2, -18, -6, 4516
[29] CCOc1ccccc1NC(=O)COC(=O)C12CC3CC(CC(O)(C3)C1)C2
 : 4, ., 4.5, 1, -13, -2, ?
[30] Cc1ccc(NC(=O)CN2C(=O)S/C(=C\c3cc(Cl)c(OCC(=O)O)c(Cl)c3)C2=O)cc1
 : 8, -9, 9.9, -2, -20, -9, 3443
[31] C=CC(=O)N1CC=CC(c2ccc(OC)cc2)N(Cc2ccc(F)cc2)C(=O)C1 (stereo not given)
 : 2, ., 7.1, -1, ., 1, .
[32] Cc1ccc(-c2ccc(C=NNC(=O)CN3CCOCC3)o2)cc1[N+](=O)[O-]
 : -14, ., 4.1, 3, ., 12, .
[33] CCOC(=O)c1c(C)[nH]c(C)c1C(=O)COC(=O)CCc1ccccc1
 : -3, ., 6.3, 8, -12, 6, 3754
[34] O=C1O/C(=C\c2ccccc2)c2ccccc21
 : 7, -7, 10, -2, -27, 2, 1955
[35] N#CCC(=O)c1ccccc1Oc1ccc(Cl)cc1
 : 7, -7, 5.3, 4, -20, 2, 2642
[36] O=C1NC(CCc2ccccc2)C(=O)N1CCOc1cccc(Br)c1 (stereo not given)
 : -10, 3, 6.0, 6, -12, 12, 4122
[37] O=C(Nc1ccccc1N1CCN(C(=O)c2ccc(Cl)cc2)CC1)c1ccc2c(c1)OCO2
 : 0, 3, 1.0, 2, -16, 1, 7518
[38] O=C(O)C1CCN(S(=O)(=O)c2cccc3nonc23)CC1
 : 3, 5, -0.2, 4, -7, 3, 5465
[39] COc1c2occc2c(OC(C)=O)c2c(=O)cc(C)oc12
 : 8, 8, -0.8, 4, -37, 4, 4099
[40] Cc1ccc(C(C)C)cc1OCC(=O)NN=Cc1ccc2c(c1)OCCO2
 : -7, ., 8.7, 18, ., 4, .
[41] Cn1nc(-c2ccc(Cl)cc2)c2cc(C(=O)NC3CC3)sc21
 : 1, 8, 1.0, ., -13, ., 5416
[42] COc1ccc(N2CCN(C(=O)NC34CC5CC(CC(C5)C3)C4)CC2)cc1
 : 5, 1, 1.7, 12, -23, 11, 4719
[43] Cc1ccc(SCC(=O)c2cc(C)c(OC(=S)N(C)C)c(C)c2)cc1
 : 66, -1, 0.0, -9, -102, 0, ?
[44] Cc1cc(=O)n2[nH]c(Nc3cccc(Cl)c3)nc2n1
 : -9, 3, -3.0, -26, -20, 3, 3791
[45] Cc1ccc(S(=O)(=O)Nc2nc3ccccc3nc2N2CCc3ccccc3C2)cc1
 : -1, 5, -0.9, -6, -11, -1, 4559
[46] COc1ccc(COCC(O)CN2CCN(S(=O)(=O)c3c(F)cccc3F)CC2)cc1OC (stereo not given)
 : 3, ., 4.2, -10, -7, 2, 3847
[47] CC1OC(n2cc(F)c(=O)[nH]c2=O)C(O)C1O (stereo not given)
 : 97*, ., 76, -7, ., 3, .
[48] Cc1ccc(S(=O)(=O)N2CCOCC2)cc1NC(=O)c1cccc(S(=O)(=O)N2CCCC2)c1
 : 8, -4, 5.0, 0, -2, -2, 3161
[49] Cc1cc(C)nc(/N=C(\N)Nc2ccc(CC(=O)OC(C)C)cc2)n1
 : 0, 10, 1.8, 10, -29, 6, 3903
[50] C[C@H]1CC[C@H]2NCCN[C@H]2C1
 : -3, -9, 2.2, 5, -17, -6, 4706
[51] COc1ccc(/C=N/NC(=O)c2sccc2C)c2ccccc12
 : ., -12, ., ., -38, ., 6321
[52] COc1ccc(NC(=S)N2CCN(Cc3ccccc3)CC2)cc1
 : -2, -3, 3.4, 11, -13, 4, 2681
[53] CCOc1c(C)cnc2c1c(=O)n(Cc1c(F)cccc1Cl)c(=O)n2C
 : 4, -2, 3.2, 8, 5, 10, 4053
[54] O=C(CNC(=S)N(Cc1ccccc1)Cc1ccccc1F)NCc1ccc(Cl)cc1
 : -13, 2, -6.7, 14, 12, 10, 4078
[55] CCOCCCNC(=O)N[C@@H](Cc1ccccc1)C(=O)OC
 : 7, -1, 8.2, 7, -5, 1, 3579
[56] CCCOc1ccc(C(C)=O)cc1CN1CCOCC1
 : 5, -1, 1.1, 11, 5, 10, 2567
[57] CCOC(=O)C1(Cc2ccccc2C)CCCN(S(=O)(=O)c2cccnc2)C1 (stereo not given)
 : 15, 14, 12, 8, -13, 5, 3202
[58] S=C(NCc1ccccc1)N1CCN(c2cccc(Cl)c2)CC1
 : 13, 1, -11, 1, -18, 8, 3329
[59] CC(=O)SC1CC2=CC(=O)CCC2(C)C2CCC3(C)C(CCC34CCC(=O)O4)C12 (stereo not given)
 : -1, -6, 6.0, 0, -11, 9, 4509
[60] C=CCN(CC=C)S(=O)(=O)c1ccc(NC(=O)COc2ccccc2OC)cc1
 : 3, ., 0.9, 5, -2, -1, 4771

(further entries)
Each structure is followed by: Sa ugtP lethal, BJeLR lethal, Sa RN4220 lethal, Mtb hypoxia inh, PrP 5UTR inh, Mtb hypoxia inh growth, Bead autofluor
[61] CCOC(=O)C1(S(=O)(=O)c2ccccc2)CCN(Cc2ccccc2)CC1
 : 5, -11, 7.1, -1, 5, 5, 25006*
[62] COc1ccc(C(=O)NCC(=O)OCC(=O)NCc2ccco2)cc1
 : 4, ., 6.7, 23, -21, 49, 3569
[63] O=[N+]([O-])c1ccc(S(=O)(=O)NCCc2cn3ccccc3n2)cc1
 : 1, 12, 9.1, 0, 2, -4, 4555
[64] CC(=O)Nc1ccc(C(=O)NNC(=O)c2ccc(Cl)cc2Cl)cc1
 : 6, 2, 4.5, 20, -16, 7, 3893
[65] O=C(COC(=O)c1n[nH]c2ccccc12)Nc1ccc([N+](=O)[O-])cc1
 : -12, -10, 0.0, ., -23, ., 2541
[66] O=C(NCCCN1CCCC1=O)Nc1ccc(F)c(Cl)c1
 : -31, -1, -3.8, 4, -18, 3, 10513
[67] CCC1(C)Cc2ccccc2-c2nc(-c3ccccc3)oc(=O)c21 (stereo not given)
 : 85*, 6, -1.4, 12, -23, 13, 9544
[68] Cc1ccc(C(=O)NC(C(=O)NC2CCCC2)c2ccccc2)cc1 (stereo not given)
 : 15, 6, 2.1, -5, -9, -7, 3357
[69] Cc1n[nH]c(C)c1CCC(=O)N/N=C/c1cccc([N+](=O)[O-])c1
 : ., 12, ., ., -22, ., 3711
[70] Oc1ccc(C2C(c3ccccc3)=NN=C(c3ccccc3F)N2O)c(O)c1 (stereo not given)
 : -2, 12, 0.1, 9, -34, 1, 8894
[71] OC(COc1cccc2ccccc12)CN1CCCC1 (stereo not given)
 : -3, -1, -0.2, 2, -2, 4, 9839
[72] COC(=O)C(Cc1ccc(O)cc1)NC(=O)c1ccccc1 (stereo not given)
 : -3, -4, 2.7, 3, -17, 7, 10950
[73] O=C(Oc1ccccc1)N1CCN(c2ccccc2F)CC1
 : -6, 9, 0.2, 5, -6, 3, 3580
[74] Cc1nc2ccccc2n1Cc1ccc(Br)cc1
 : -1, 7, 4.7, 11, -8, -7, 4260
